Arbovirus inh – arbovirus infection inhibition; actives 0.37% (n = 200,000); arbovirus infection cell-based antiviral screen; inhibition, % at 10 µM;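 active = inhibition from about 30%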;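 note: bluetongue infection of BSR cells; cell survival read as ATP light after 72 h; 0% = infected wells without compound and 100% = uninfected wells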
Mtb growth – M. tuberculosis H37Rv growth inhibitors, H37Rv strain (AID 1626). inhibition, % at 10 µM; hits with a dose series show IC50 in µM. actives 0.95% (n = 220,000). M. tuberculosis H37Rv growth inhibition; higher % means a stronger effect;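 active = confirmed in a dose series; inconclusive = inhibition above 80% but not taken into the dose series; inactive = below 80% or under 30% at every dose of the series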;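 note: bacteria incubated seven days before Alamar blue readout; 0% = bacteria only wells and 100% = bacteria with antibiotic wells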
RecA splice inh – inhibitors of M. tuberculosis RecA intein splicing. P9WHJ3. cell-free RecA intein splicing, fluorescence. inhibition, %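 (about 9 µM by stock and volumes)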. actives 0.75% (n = 290,000). AID 2221; in the data active = inhibition above about 30%; inconclusive = no clear call, values can overlap the other calls;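 note: 0% = vehicle wells and 100% = reference inhibitor control wells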
Target sequence (P9WHJ3 whole entry, looked up, canonical isoform): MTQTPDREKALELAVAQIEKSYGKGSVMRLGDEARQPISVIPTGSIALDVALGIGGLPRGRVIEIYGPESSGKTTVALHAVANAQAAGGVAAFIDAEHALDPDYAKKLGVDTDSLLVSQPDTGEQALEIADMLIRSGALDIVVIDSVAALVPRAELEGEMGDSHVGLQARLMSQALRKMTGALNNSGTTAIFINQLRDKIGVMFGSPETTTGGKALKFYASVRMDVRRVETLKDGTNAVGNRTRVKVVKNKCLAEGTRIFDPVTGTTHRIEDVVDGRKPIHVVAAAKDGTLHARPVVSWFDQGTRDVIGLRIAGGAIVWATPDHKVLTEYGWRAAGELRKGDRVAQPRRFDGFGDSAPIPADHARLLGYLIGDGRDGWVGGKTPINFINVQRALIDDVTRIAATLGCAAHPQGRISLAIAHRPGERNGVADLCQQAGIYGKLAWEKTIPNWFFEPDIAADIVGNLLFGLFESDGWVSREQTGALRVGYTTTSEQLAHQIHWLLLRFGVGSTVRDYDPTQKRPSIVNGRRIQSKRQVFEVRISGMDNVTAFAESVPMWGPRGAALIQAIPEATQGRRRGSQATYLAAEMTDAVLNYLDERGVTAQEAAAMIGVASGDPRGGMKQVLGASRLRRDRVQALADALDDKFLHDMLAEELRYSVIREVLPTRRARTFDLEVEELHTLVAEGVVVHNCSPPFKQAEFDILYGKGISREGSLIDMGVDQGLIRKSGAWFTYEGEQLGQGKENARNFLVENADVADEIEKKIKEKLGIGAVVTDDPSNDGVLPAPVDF
Mtb bLac sens – beta-lactam sensitization of Mtb H37Rv | M. tuberculosis H37Rv growth with meropenem, percent inhibition; hits of this screen are not shown here | inhibition, % at 25 µM | actives 0.27% (n = 330,000);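 active = about 74% or more and at least 40 points above the plate without the antibiotic, then above 30% in a dose series; inconclusive = first-round hits that could not be retested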;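 note: growth measured after seven days incubation then overnight dye step; 0% = bacteria only wells and 100% = bacteria with antibiotic; twin plates without the antibiotic show which effects depend on it; some results filed as inactive read as strong as hits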
YopH PTP inh – inhibitors of Yersinia enterocolitica YopH tyrosine phosphatase. inhibition, %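 (about 10 µM by stock and volumes)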. fluorescence Ex485/Em525. actives 0.16% (n = 140,000). AID 898;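 active = inhibition of 50% or more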;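 note: controls were vehicle for no effect and minimum signal wells for full effect; inactives centre near -20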
Arbovirus inh repeat – recorded beside Arbovirus inh, whose call it bears; inhibition, %; measured here: 10K subset replicate screen; many hits read low in the repeat;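 first of two repeat runs on a subset; 0% = infected and 100% = uninfected wells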
The depositor's hits bear a star; ? = inconclusive; nt = not tested or not shown. These rows are one share of the data; the hit share may differ from the screen's.

SMILES | Arbovirus inh | Mtb growth | RecA splice inh | Mtb bLac sens | YopH PTP inh | others
O=C(Nc1cccc(Cl)c1)c1ccncc1 | 3 | 1% | 0.7 | -7 | -32
CCOc1ccc(N2C(=O)c3cccnc3C2Nc2ccc(C)cc2)cc1 (configuration not stated) | 4 | 12% | 0.3 | -8 | -42
O=C1COc2ccc(S(=O)(=O)NCCc3ccccc3)cc2N1 | nt | nt | 0.4 | 1 | nt
CCN1CCCC1CNC(=O)C(=O)NC (configuration not stated) | 1 | 2% | -1.2 | -17 | nt
COc1ccc(-c2nn(-c3ccccc3)cc2CN(C)CCn2ccnc2C)c(F)c1 | nt | 25% | -1.8 | 3 | nt
O=C(Nc1ccc(Br)cc1)Nc1ccccc1F | 6 | 9% | 3.4 | 2 | nt
COC(=O)Cc1[nH]n(-c2ccccc2)c(=O)c1C(C)=Nc1ccccc1 | 12 | 1% | 3.5 | 2 | nt
COc1cccc2c(=O)ccoc12 | 3 | 6% | -1.5 | 0 | -13
CCc1ccc(/C=C2\Oc3c(ccc(O)c3CN3CCN(CCO)CC3)C2=O)cc1 | nt | 6% | -5.1 | -11 | nt
Cn1cnnc1Sc1nc([N+](=O)[O-])nn1C | -3 | -13% | -4.1 | -11 | nt
O=C(CCN1C(=O)c2ccccc2S1(=O)=O)Nc1cccc(F)c1 | nt | nt | -0.9 | -15 | nt
Cc1cnc(NC(=O)CC2CCCC2)s1 | 3 | 0% | -0.1 | 4 | nt
O=C(c1cccs1)N1CCN(Cc2cccc([N+](=O)[O-])c2)CC1 | -8 | 2% | -3.3 | 5 | -14
CN1CCc2c1nc1ccccc1c2N=C1CCCN1Cc1ccccc1 | 8 | 11% | nt | -3 | -9
CC(=O)N1N=C(c2ccc(C)o2)CC1c1cccc(F)c1 (configuration not stated) | -4 | 1% | 3.0 | 1 | nt
COc1cc(NC(=O)CSc2nnnn2C2CCCC2)cc(OC)c1 | nt | nt | -0.7 | -3 | nt
CC1CCN(C(=S)c2cn(Cc3ccc(F)cc3)c3ccccc23)CC1 | -4 | -19% | 5.9 | -8 | -40
NC(=O)NC(=O)CSc1ccccc1 | 3 | 0% | 0.4 | -1 | nt
CN(C)N1C(N)=C(C#N)C(c2ccsc2)C2=C1CC(C)(C)CC2=O (configuration not stated) | 7 | 2% | -3.7 | 1 | -21
O=C(CSc1ccc(-c2cccnc2)nn1)Nc1ccc(F)c(F)c1 | nt | nt | -0.7 | 1 | nt
COc1ccc(NC(=O)c2csc(Cc3ccccc3)n2)cc1 | 9 | -4% | 6.8 | 39 | -45
O=C(NCCCn1ccnc1)/C(=C/c1ccc(Cl)cc1)NC(=O)c1ccccc1 | nt | nt | -4.5 | 0 | nt
O=C(O)CN1C(=O)CSC1=S | nt | nt | -2.3 | -9 | nt
CC(C)CNC(=O)C1CCN(c2ccc(S(=O)(=O)N3CCOCC3)cc2[N+](=O)[O-])CC1 | nt | 2% | 1.8 | -2 | nt
CC(C)c1ccc(/C=N/NC(=O)C(=O)NCCCN2CCOCC2)cc1 | 8 | -9% | -0.5 | -6 | -26
Cn1c(COc2ccc3ccccc3c2)nnc1SCC(N)=O | 6 | -8% | 1.1 | -1 | -35
COc1cccc(CNc2nc3ccccc3n2C)c1O | nt | nt | -3.2 | -2 | nt
Cc1ccc(NC(=O)C2(N(C(=O)Cn3nnnc3N)c3ccc(C)cc3)CCCCC2)cc1 | 4 | 3% | 2.2 | -5 | -30
CCN(CC)c1ccc(/C=N/NC(=O)CCC(=O)NCc2ccccc2)c(O)c1 | -36 | 2% | -5.0 | 7 | -25
Cc1ccc(C(=O)O/N=C(\N)c2cccnc2)cc1[N+](=O)[O-] | 1 | -5% | 2.1 | 3 | -19
CCCn1c(=O)[nH]c(=O)c2c(C(=O)OCC)cc(-c3cccs3)nc21 | -12 | 7% | -3.0 | 10 | nt
O=C1CCN(S(=O)(=O)c2ccccc2)CCN1CCOCc1ccc(C(F)(F)F)cc1 | nt | 5% | 0.2 | -8 | nt
c1ccc(C2CC(c3cccs3)Nc3nnnn32)cc1 (configuration not stated) | -1 | -2% | 2.9 | -4 | nt
CN(C)S(=O)(=O)c1cccc(C(=O)Nc2n[nH]c(C(F)(F)F)n2)c1 | nt | nt | -0.9 | -1 | nt
COc1cccc(NC(=S)Nc2ccc(O)cc2)c1 | nt | -6% | -1.6 | -1 | nt
Cc1cc(=O)oc2cc(OCC(=O)N(C)C3CCS(=O)(=O)C3)c(Cl)cc12 (configuration not stated) | nt | nt | -0.9 | 2 | nt
Clc1ccc(CNc2nnnn2-c2ccccc2)c(Cl)c1 | -2 | -11% | 2.1 | 2 | 8
O=C(N/C(=C\c1ccccc1)C(=O)N1CCCCC1)c1ccc(Br)o1 | nt | nt | -1.4 | -10 | nt
COc1ccccc1-c1ccc(SCc2cccc(C)c2)nn1 | 22 | 13% | 12 | 4 | nt
Cc1nc(CSc2n[nH]c(=O)n2-c2ccccc2)cs1 | nt | 2% | 4.9 | 5 | nt
Cc1ccc(S(=O)(=O)NCCSc2ccccc2)cc1[N+](=O)[O-] | 6 | 10% | 3.8 | -4 | -4
CCOc1ccc2c(c1)c(=O)c(S(=O)(=O)c1ccc(CC)cc1)cn2C | nt | nt | 0.2 | -2 | nt
CCC(=O)Nc1sc(Cc2ccc3c(c2)OCO3)c(C)c1C(N)=O | nt | 2% | -1.6 | -5 | nt
O=C1c2ccccc2NC(c2ccc(Br)s2)N1O (configuration not stated) | nt | nt | -0.8 | -8 | nt
Cc1ccccc1N/C(SCc1ccc(Cl)cc1)=C(/C#N)C(N)=O | 1 | 16% | -8.6 | 9 | -4
NNC(=O)CNC(c1ccccc1)c1cc(Cl)ccc1NC(=O)c1ccccc1 (configuration not stated) | nt | nt | -2.0 | -1 | nt
Cc1ccc(/C=C(\NC(=O)c2ccccc2)C(=O)NCCc2ccccn2)o1 | 4 | -6% | -3.1 | -6 | -7
COCCNc1nnc(SCC(=O)N2CCN(S(=O)(=O)c3ccccc3)CC2)s1 | 4 | -11% | -5.0 | -5 | -3
COc1ccc(NC(=O)CC2CCCCC2)cc1OC | -4 | -3% | 5.0 | -3 | 3 | Arbovirus inh repeat=-2
COc1ccc(-c2noc(-c3ccc(Cl)cc3[N+](=O)[O-])n2)cc1OC | 2 | 2% | 1.9 | 6 | -23
More compounds:
SMILES | Arbovirus inh | Mtb growth | RecA splice inh | Mtb bLac sens | YopH PTP inh | others
CCOc1cc(N2CCOCC2)c(OCC)cc1NC(C)C(=O)N1CCC(C)CC1 (configuration not stated) | -9 | 3% | 13 | -2 | -3
CC(=O)Nc1ccc2ccccc2c1 | 6 | 12% | -2.4 | 77 | -11
COc1ccccc1OCCNC(=O)c1cccc(S(=O)(=O)N2CC(C)OC(C)C2)c1 (configuration not stated) | nt | nt | 1.1 | -5 | nt
Cc1ccc(S(=O)(=O)N2CCN(CC(=O)NC3CCCc4ccccc43)CC2)cc1C (configuration not stated) | -19 | 0% | 8.6 | -10 | -10
CC(=O)N(CCC(c1ccco1)C(C)C)Cc1ccc(Cl)cc1 (configuration not stated) | nt | -12% | 16 | -2 | nt
Cc1c(C(=O)N(Cc2ccncc2)CC2CCCO2)oc2c(F)cccc12 (configuration not stated) | nt | nt | -6.7 | -4 | nt
Cc1ccc(/C=C/C(=O)NN2CCN(C)CC2)cc1 | nt | nt | -3.5 | 5 | nt
COC(=O)C1=C(C)N(CCCC(=O)O)C(=O)NC1c1ccc(Cl)cc1 (configuration not stated) | nt | -12% | -0.6 | 0 | nt
Cc1cc(C)cc(N2CC(c3nc4ccccc4n3C)CC2=O)c1 (configuration not stated) | 7 | 4% | -1.4 | 8 | nt
Nc1c(C(=O)Nc2ccc(Cl)cc2)sc2nc(N3CCOCC3)c3c(c12)CCCC3 | nt | nt | -5.6 | -5 | nt
CCCCN(CC)CCCNC(=S)Nc1ccc2nc(N3CCN(CC)CC3)cc(C)c2c1 | -15 | 3% | -2.2 | -10 | nt
O=C(Nc1cc(C(F)(F)F)ccc1N1CCOCC1)c1cccc(F)c1 | -3 | 0% | 0.0 | -11 | -4
CC1(C)CC(=O)C=C(NCCN2CCN(C(=S)Nc3ccccc3)CC2)C1 | nt | -4% | 8.4 | -10 | nt
COCCn1c(SCc2cccnc2)nnc1-c1ccco1 | -1 | -8% | 0.3 | -4 | -52
COc1ccc(CCNC(=O)c2ccc3c(c2)NC(=O)C(CSCc2cc(C)ccc2C)N3)cc1OC (configuration not stated) | nt | nt | 25 | 2 | nt
COc1ccccc1-c1c(C)nn2c(N3CCOCC3)cc(C)nc12 | nt | nt | 0.9 | 1 | nt
COc1ccccc1CCc1nnc(CCC(=O)NCCCOc2cccnc2)o1 | 7 | -3% | -1.6 | -2 | nt
COC(=O)C(NC(=O)c1c(C)nn(C)c1Cl)c1ccccc1 (configuration not stated) | 4 | -6% | 2.7 | -8 | nt
CCOc1cc(/C=C/c2cccc[n+]2C)ccc1O | nt | nt | -1.8 | 3 | nt
COc1ccccc1/C=C/CN1CCN(Cc2ccc(C)o2)C(CCO)C1 (configuration not stated) | 3 | 1% | 4.0 | -14 | nt
CCc1sc(NC(=O)c2cc3ccccc3oc2=O)nc1-c1cccs1 | -9 | ? | 0.1 | 86 | -34
COc1ccc(OCC2CNC(=O)O2)cc1 (configuration not stated) | 2 | 6% | -1.1 | -4 | -12
CCOc1ccc(NC(=O)CN(C)C(=O)c2cn3ccccc3n2)cc1OCC | nt | nt | -3.8 | -1 | nt
Cc1cccc(S(=O)(=O)NCCNS(=O)(=O)c2cccc(C)c2)c1 | nt | nt | -0.5 | -4 | nt
COc1ccc(CNC(=O)c2ccc3ccccc3n2)cc1OC | nt | nt | 0.7 | 2 | nt
Cc1ccsc1/C=N/n1c(-c2ccccn2)n[nH]c1=S | 5 | 0% | 2.8 | -8 | -5
COc1ccc2sc(NC(=O)c3ccco3)nc2c1 | -18 | -7% | 4.5 | -7 | -4
COc1ccccc1N1CCN(C(=O)c2onc(C)c2Cl)CC1 | nt | nt | -5.8 | -5 | nt
CCOC(=O)CNC(=O)c1nn(-c2ccc(OCC)cc2)c(=O)c2ccccc12 | -3 | 25% | nt | 94 | -28
COc1ccccc1N1CCN(C(=O)C2CCN(S(=O)(=O)c3ccc(C)cc3)CC2)CC1 | -1 | 1% | 5.9 | 2 | nt
O=C(CCn1c(=O)oc2ccccc21)N1CCCCCC1 | -5 | -10% | 1.2 | -13 | 2
CC(Oc1cc2oc(=O)c3c(c2cc1Cl)CCC3)C(=O)NCc1ccncc1 (configuration not stated) | nt | nt | 12 | -2 | nt
COc1cc(/C=C2\C(=N)N3N=CSC3=NC2=O)cc(Br)c1OC(=O)c1ccco1 | 10 | 9% | -0.3 | 2 | nt
CN(C(=O)c1c(Cl)cnn1C)C12CC3CC(CC(C3)C1)C2 | 8 | 8% | 3.5 | 1 | 8
CC1Cc2cc(/C=C3/SC(=S)NC3=O)ccc2O1 (configuration not stated) | nt | 0% | 1.2 | 10 | nt
CCCCN1C=CC(=C2C(=O)c3ccccc3C2=O)C=C1 | -32 | -3% | 4.8 | -5 | nt
CC1=NN(c2ccc(Cl)cc2)C(=O)C1C(c1cccc(O)c1)c1c(C)[nH]n(-c2ccc(Cl)cc2)c1=O (configuration not stated) | -4 | 77% | 88* | 0 | -17
Cc1cc2c(cc1C)[n+](C)cn2CC(O)COCC1CC=CCC1 (configuration not stated) | -1 | -8% | -1.5 | -2 | nt
O=C(CCn1c(=O)oc2ccccc21)NCCCN1CCN(c2ccc(F)cc2)CC1 | 0 | -11% | 3.3 | 8 | -37
COc1ccc(CN2C(=O)C(Cc3ccccc3)Nc3ncnc(N4CCN(c5ccccc5)CC4)c32)cc1 (configuration not stated) | nt | nt | 7.7 | 49 | nt
CCn1c(SCc2nc3ccccc3[nH]2)nnc1-c1cccs1 | 6 | 10% | 3.1 | -8 | -20
C[C@H](NC(=O)OC(C)(C)C)C(=O)N/N=C/c1cccc2nccnc12 | nt | -4% | -1.3 | -2 | nt
O=C(Nc1cc(Cl)ccc1-n1cncn1)c1cc(S(=O)(=O)N2CCOCC2)ccc1F | nt | nt | -0.1 | -12 | nt
